Vaccinia stage: blocks a specific stage of Vaccinia orthopoxvirus infection; actives 0.01% (n = 89,000); AID 1053133; activity change (mCherry), % (test concentration not listed); Vaccinia-infected cells, mCherry/Venus stage reporter fluorescence; stronger effect = lower value; some inactives read as strong as hits;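 active = mCherry past -33% and 40 or more points under the early reporter, replicates agreeing; inconclusive = past -33% without that gap or agreement; tested in A549 cells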;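 note: scaled between vehicle wells and reference inhibitor wells; 23 nL library stock went into each well; one replicate is shown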
Vaccinia stage Venus: second read-out of Vaccinia stage, no call of its own (marks repeat the call); activity change (Venus), %; measured here: Venus reporter, other viral stage;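 negative = less Venus signal; first of two replicates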
Starred values were filed as active, the others as inactive; ? = inconclusive; . = not tested or not shown; & = joins results of further samples. Some of the compounds tested, so the mix of outcomes need not match the whole.

Below each compound – Vaccinia stage	Vaccinia stage Venus
- C/C=C/c1cnc2c(c1)C(=O)N([C@H](C)CO)C[C@H](C)[C@@H](CN(C)C(=O)C1CCOCC1)O2
 : 19	13
- C[C@H]1CN([C@@H](C)CO)C(=O)c2cc(NC(=O)CCC(F)(F)F)ccc2O[C@@H]1CN(C)Cc1ccc(C(=O)Nc2ccccc2N)cc1
 : 4	9
- CCCN(C)C[C@H]1Oc2ncc(C#CCOC)cc2C(=O)N([C@H](C)CO)C[C@H]1C
 : 15	13
- C[C@@H]1CN([C@@H](C)CO)C(=O)c2cc(C#CCN(C)C)cnc2O[C@@H]1CN(C)Cc1ccccn1
 : 11	2
- O=C(NC1CCC1)[C@@H]1[C@@H](CO)[C@@H]2Cn3c(ccc(-c4ccncc4)c3=O)[C@@H]2N1CC1CC1
 : 11	13
- COc1ccc(S(=O)(=O)Nc2cccc3c2O[C@H](CN(C)S(=O)(=O)c2cccs2)[C@@H](C)CN([C@@H](C)CO)C3=O)cc1
 : -12	9
- COCC(=O)N1CC2(C1)[C@@H](c1ccc(-c3cccc(C)c3)cc1)[C@@H](CO)N2C(=O)C1CC1
 : -3	2
- COCCOC(=O)N1C(=O)[C@@]2(c3cc(C#CCCO)ccc31)[C@H](C(=O)N1CCN(c3ncccn3)CC1)[C@H]1C(=O)O[C@H](c3ccccc3)[C@H](c3ccccc3)N1[C@@H]2c1ccccc1OCCO
 : 6	5
- C[C@@H]1CCCCO[C@H](CN(C)Cc2ccc(Cl)c(Cl)c2)[C@H](C)CN([C@@H](C)CO)C(=O)c2cc(NC(=O)Nc3ccc4c(c3)OCO4)ccc2O1
 : ?	.
- C[C@H]1CN([C@@H](C)CO)C(=O)c2cccc(NC(=O)CCCCCC(=O)Nc3ccccc3N)c2O[C@@H]1CN(C)S(C)(=O)=O
 : 12	12
- CCNC(=O)C[C@@H]1CC[C@H]2[C@@H](COc3ccc(NC(=O)c4ccccc4)cc3C(=O)N2C)O1
 : 18	16
- CCC(=O)N1[C@H](CO)[C@@H](c2ccccc2)C12CN(Cc1ccccc1F)C2
 : 3	-1
- COCC(=O)N1CCC2(CC1)CN(Cc1cccc(F)c1)[C@H](CO)c1c2c2ccc(OC)cc2n1C
 : -4	-5
- CC(C)[C@@H](C)NC(=O)N(C)C[C@H]1OCc2ccccc2-c2c(n(C)c3ccccc23)C(=O)N([C@@H](C)CO)C[C@@H]1C
 : 17	18
- CNC[C@H]1Oc2ccc(NS(=O)(=O)c3cn(C)cn3)cc2CC(=O)N([C@H](C)CO)C[C@@H]1C
 : 14	5
- COC(=O)C[C@H]1C[C@@H]2c3cc(NS(=O)(=O)c4ccc(F)cc4)ccc3O[C@@H]2[C@H](CO)O1
 : -5	-4
- C[C@H]1CN([C@@H](C)CO)S(=O)(=O)c2ccc(C#CC3CC3)cc2O[C@H]1CN(C)C(=O)CC1CC1
 : -17	-13
- Cc1noc(C)c1NC(=O)N(C)C[C@H]1Oc2ccc(NC(=O)CCN3CCOCC3)cc2C(=O)N([C@H](C)CO)C[C@@H]1C
 : 32	16
- CN(C)CC(=O)N1C[C@@H]2[C@H](c3ccccc31)[C@H](CO)N2Cc1cc(F)ccc1F
 : -12	-7
- CC(C)NC(=O)NCC[C@H]1CC[C@@H](NC(=O)CN(C)C)[C@@H](CO)O1
 : -11	-4
- CCCNC(=O)N(C)C[C@H]1Oc2ncc(C#CCc3ccccc3)cc2C(=O)N([C@H](C)CO)C[C@H]1C
 : 8	6
- Cc1cc(C(=O)Nc2cccc3c2O[C@@H](CN(C)C(=O)Nc2ccc4c(c2)OCO4)[C@@H](C)CN([C@H](C)CO)C3=O)n(C)n1
 : 31	12
- C[C@@H]1CN([C@@H](C)CO)C(=O)Cc2cc(NC(=O)c3ccncc3)ccc2O[C@H]1CN(C)C(=O)Nc1ccc2c(c1)OCO2
 : -1	2
- CC(C)NC(=O)Nc1ccc2c(c1)CC(=O)N([C@@H](C)CO)C[C@@H](C)[C@@H](CN(C)Cc1ccc(C(=O)O)cc1)O2
 : 15	19
- CCCNC(=O)N(C)C[C@@H]1Oc2cc(C#C[C@@H](C)O)ccc2S(=O)(=O)N([C@@H](C)CO)C[C@H]1C
 : 21	15
- C[C@H](CO)N1C[C@H](C)[C@@H](CN(C)Cc2ccc(C(=O)Nc3ccccc3N)cc2)Oc2ccc(NS(=O)(=O)c3ccc(Cl)cc3)cc2C1=O
 : 13	12
- CCCNC(=O)C[C@@H]1C[C@H]2c3cc(NC(=O)Nc4ccccc4F)ccc3O[C@H]2[C@H](CO)O1
 : 10	13
- O=C(C[C@@H]1C[C@@H]2c3cc(NS(=O)(=O)c4ccc(F)cc4)ccc3O[C@@H]2[C@H](CO)O1)N1CCc2ccccc2C1
 : 8	9
- C=C[C@@H](COC(C)=O)N(Cc1ccccc1[N+](=O)[O-])S(=O)(=O)c1ccc(Br)cc1
 : -17	-17
- CC(C)NC(=O)N(C)C[C@H]1Oc2ncc(C#Cc3ccncc3)cc2C(=O)N([C@@H](C)CO)C[C@H]1C
 : -2	1
- C[C@@H]1CN([C@H](C)CO)C(=O)Cc2cc(N(C)C)ccc2O[C@H]1CN(C)S(=O)(=O)c1cn(C)cn1
 : 5	11
- C[C@H]1CN([C@@H](C)CO)C(=O)c2cc(C#CCN(C)C)cnc2O[C@@H]1CN(C)Cc1ccncc1
 : 15	4
- CC(=O)N1CCCCN2[C@H](CO)[C@@H](c3ccc(-c4ccncc4)cc3)[C@@H]2C1
 : 28	8
- CO[C@@H]1CN(C)C(=O)c2ccc(NS(=O)(=O)c3ccccc3)cc2OC[C@H](C)N(Cc2ccccn2)C[C@@H]1C
 : 19	11
- O=C(C[C@H]1C[C@@H]2c3cc(NC(=O)c4ccc5c(c4)OCO5)ccc3O[C@@H]2[C@@H](CO)O1)NCCN1CCCCC1
 : 27	17
- C[C@@H]1CN([C@@H](C)CO)C(=O)Cc2cc(NS(=O)(=O)c3ccc(F)cc3)ccc2O[C@@H]1CN(C)S(=O)(=O)c1cccs1
 : 0	3
- C[C@@H]1CN([C@@H](C)CO)C(=O)c2cc(NC(=O)CCCCCC(=O)Nc3ccccc3N)ccc2O[C@H]1CN(C)S(=O)(=O)c1ccccc1
 : -4	-4
- C[C@@H]1CN([C@H](C)CO)C(=O)c2cc(C#CC(C)(C)O)cnc2O[C@H]1CN(C)Cc1cccc(C(=O)O)c1
 : 27	13
- Cc1noc(C)c1S(=O)(=O)Nc1ccc2c(c1)C(=O)N([C@@H](C)CO)C[C@@H](C)[C@H](CN(C)C(=O)NC(C)C)O2
 : 16	8
- CO[C@H]1CN(C)C(=O)c2cc(NC(=O)C3CC3)ccc2OC[C@H](C)N(Cc2ccncc2)C[C@@H]1C
 : -15	-12
- O=C(C[C@H]1CC[C@H]2[C@@H](COC[C@H](O)CN2S(=O)(=O)c2cccc(Cl)c2)O1)NCCCN1CCOCC1
 : 21	4
- Fc1ccc(-c2ccc(C3[C@@H]4CN(Cc5cccc(F)c5)C[C@H]3N4)cc2)cc1 (stereo partly specified)
 : ?	.
- CN(C)CCCNC(=O)C[C@H]1C=C[C@@H](NC(=O)c2ccccc2F)[C@H](CO)O1
 : -3	7
- C/C=C/c1ccc([C@H]2[C@@H](CO)N(C(=O)CC)C23CN(C(=O)c2ccccc2)C3)cc1
 : 2	11
- C[C@H]1CN([C@@H](C)CO)C(=O)c2cc(-c3cccc(F)c3)cnc2O[C@H]1CN(C)Cc1cccnc1
 : 6	0
- C[C@H]1CN([C@@H](C)CO)C(=O)c2cccc(NS(=O)(=O)c3cccs3)c2O[C@H]1CN(C)C(=O)Nc1ccc(F)cc1
 : 17	10
- C[C@@H]1CCCCO[C@@H](CN(C)CC2CCCCC2)[C@H](C)CN([C@@H](C)CO)C(=O)c2cc(NC(=O)C3CCCCC3)ccc2O1
 : ?	.
- CCCC(=O)Nc1ccc2c(c1)OC[C@@H](C)N(Cc1ccccc1)C[C@H](C)[C@@H](OC)CN(C)C2=O
 : -6	-5
- CCC(=O)N1[C@@H](CO)[C@@H](c2ccc(-c3ccccc3C)cc2)C12CN(C(C)=O)C2
 : 8	5
- CO[C@H]1CN(C)C(=O)c2cc(NS(=O)(=O)c3ccc(Cl)cc3)ccc2OC[C@@H](C)N(C)C[C@@H]1C
 : 1	-7
- COc1ccccc1S(=O)(=O)N1C[C@@H]2N[C@H](C1)C2c1ccc(-c2cccc(C)c2)cc1 (stereo partly specified)
 : ?	11
- Cc1ccc(S(=O)(=O)N[C@@H]2CC[C@@H](CCNC(=O)CN3CCOCC3)O[C@@H]2CO)cc1
 : -10	-4
- COc1cccc(NC(=O)N[C@@H]2CC[C@@H](CC(=O)NCc3ccccn3)O[C@H]2CO)c1
 : -12	-7
- COc1ccc2c3c([nH]c2c1)[C@@H](CO)N(Cc1cccnc1)CC31CCN(C(=O)CN(C)C)CC1
 : 2	-1
- C[C@@H]1CN([C@@H](C)CO)C(=O)c2cc(NS(=O)(=O)c3ccccc3)ccc2O[C@H]1CN(C)Cc1ccc(C(F)(F)F)cc1
 : ?	.
- Cc1ccc(S(=O)(=O)N[C@@H]2CC[C@@H](CC(=O)NCc3ccncn3)O[C@@H]2CO)cc1
 : 1	2
- O=C(Cc1ccccc1)N1C[C@H]2[C@@H](c3ccccc31)[C@H](CO)N2C(=O)C1CC1
 : 5	3
- CC(C)C#Cc1ccc2c(c1)O[C@H](CN(C)CC1CC1)[C@H](C)CN([C@H](C)CO)S2(=O)=O
 : -30	-33
- C[C@H]1CN([C@@H](C)CO)C(=O)c2cc(NC(=O)Nc3ccccc3)ccc2O[C@H]1CN(C)Cc1ccccc1
 : -8	-13
- CN(C)C(=O)C[C@@H]1CC[C@@H]2[C@H](COC[C@@H](O)CN2CC2CC2)O1
 : 10	11

Not a retest: an excerpt of the list.
Below each compound – Vaccinia stage	Vaccinia stage Venus
- O=C(C[C@H]1CC[C@H]2[C@@H](COC[C@H](O)CN2S(=O)(=O)c2cccc(Cl)c2)O1)NCCCN1CCOCC1
 : 21	4
- Fc1ccc(-c2ccc(C3[C@@H]4CN(Cc5cccc(F)c5)C[C@H]3N4)cc2)cc1 (stereo partly specified)
 : ?	.
- CN(C)CCCNC(=O)C[C@H]1C=C[C@@H](NC(=O)c2ccccc2F)[C@H](CO)O1
 : -3	7

Part of the list above, as labelled records:
> CC(C)C#Cc1ccc2c(c1)O[C@H](CN(C)CC1CC1)[C@H](C)CN([C@H](C)CO)S2(=O)=O
  Vaccinia stage = -30 | Vaccinia stage Venus = -33
> C[C@H]1CN([C@@H](C)CO)C(=O)c2cc(NC(=O)Nc3ccccc3)ccc2O[C@H]1CN(C)Cc1ccccc1
  Vaccinia stage = -8 | Vaccinia stage Venus = -13

Other entries
Below each compound – Vaccinia stage	Vaccinia stage Venus
- N#C[C@H]1[C@@H](c2ccc(C#CC3CCCC3)cc2)[C@H](CO)N1S(=O)(=O)c1ccccc1
 : ?	.
- COc1ccc(NC(=O)N(C)C[C@H]2Oc3c(NC(=O)Nc4c(C)noc4C)cccc3C(=O)N([C@H](C)CO)C[C@@H]2C)cc1
 : 18	20
- CCCC#Cc1ccc2c(c1)O[C@@H](CN(C)C(=O)c1ccccc1)[C@@H](C)CN([C@H](C)CO)S2(=O)=O
 : -21	-18
- C[C@H]1CN([C@@H](C)CO)C(=O)c2cccc(NS(=O)(=O)c3ccc(Cl)cc3)c2O[C@@H]1CN(C)C(=O)NC1CCCCC1
 : 7	4
- C[C@@H]1CCCCO[C@@H](CN(C)C(=O)C2CCCCC2)[C@H](C)CN([C@@H](C)CO)C(=O)c2cc(NS(=O)(=O)c3ccc(Cl)cc3)ccc2O1
 : ?	.
- COCC(=O)N(C)C[C@H]1Oc2cc(C#CC3CC3)ccc2S(=O)(=O)N([C@H](C)CO)C[C@H]1C
 : 12	4
- C[C@@H]1CN([C@H](C)CO)S(=O)(=O)c2ccc(Br)cc2O[C@H]1CN(C)C(=O)Cc1ccccn1
 : 13	3
- O=C(c1ccccc1F)N1C[C@H]2[C@@H](c3ccccc31)[C@H](CO)N2C(=O)c1ccc(F)cc1
 : 4	-3
- Cc1ccc(S(=O)(=O)N(C)C[C@H]2Oc3ncc(Br)cc3C(=O)N([C@H](C)CO)C[C@@H]2C)cc1
 : -2&-13	-6&6
- O=C(C[C@@H]1CC[C@H](NC(=O)c2ccccc2)[C@@H](CO)O1)Nc1ccc(-c2ccccc2)cc1
 : -15	-15
- COc1ccc(-c2ccc([C@H]3[C@@H](CO)N4C(=O)CN(C(=O)c5ccccc5)C[C@@H]34)cc2)cc1
 : 18	9
- CO[C@@H]1CN(C)C(=O)c2ccc(NC(=O)c3ccc(F)cc3)cc2OC[C@H](C)N(C)C[C@@H]1C
 : -4	-4
- CCCNC(=O)C[C@H]1C[C@H]2c3cc(NC(=O)Nc4ccccc4F)ccc3O[C@H]2[C@H](CO)O1
 : 21	14
- C[C@@H]1CN([C@@H](C)CO)C(=O)c2cc(/C=C/c3ccccc3)cnc2O[C@@H]1CN(C)S(=O)(=O)c1ccccc1F
 : -33	-17
- Cc1ccccc1S(=O)(=O)N1CC(=O)N2[C@H](CO)[C@H](c3ccc(C#CC4CC4)cc3)[C@@H]2C1
 : -2	-13
- C[C@@H]1CN([C@@H](C)CO)C(=O)c2cc(NS(=O)(=O)c3ccccc3)ccc2O[C@@H](C)CCCCO[C@H]1CN(C)C
 : 12	7
- C[C@@H]1CN([C@@H](C)CO)C(=O)c2cccc(NC(=O)C3CCOCC3)c2O[C@@H]1CN(C)Cc1ccc(C(=O)Nc2ccccc2N)cc1
 : 3	-7
- CCCC#Cc1cnc2c(c1)C(=O)N([C@H](C)CO)C[C@@H](C)[C@@H](CN(C)C(=O)NC1CCCC1)O2
 : 0	-6
- CCCNC(=O)[C@H]1[C@H](CO)[C@H]2Cn3c(ccc(-c4cccc(OC)c4)c3=O)[C@H]2N1Cc1nccs1
 : 15	8
